# FGF22 binding – FGF22 (human) thermal shift binding. recombinant FGF22 thermal shift, SYPRO orange fluorescence; percent of sucrose octasulfate shift, DMSO zero. calls only at 9.99 µM. 340,000 compounds, 1.5% hits;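 active = melting point raised past a set limit in the mean and every replicate; three in four hits are not shown here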
# E coli growth – blocks Escherichia coli growth | OD600, 23 h; active compounds read low | 330,000 compounds, 0.21% hits | AID 1053175 | OD600 absorbance (test concentration not listed);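 active = OD600 absorbance below the run mean of sample wells minus 3.6 SD, in any replicate, cut at about 0.56 in these data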;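 note: stock transfer was 300 nL into about 60 µL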
# Beta2AR agonist – activates human beta-2 adrenergic receptor causing internalization. P07550. Am2.2-beta2AR cells, FAP receptor internalization, flow cytometry; reference of the scale not given here. response, % (no concentration beside the values). 340,000 compounds, 0.43% hits;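 active = response above a set limit, near 3 SD of response in nonfluorescent compounds, cut at about 42% in these data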;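 note: stock transfer was 100 nL into about 11 µL; a reference agonist was the positive control; negative values mostly stem from fluorescent compounds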
# Target sequence (P07550 whole entry, looked up): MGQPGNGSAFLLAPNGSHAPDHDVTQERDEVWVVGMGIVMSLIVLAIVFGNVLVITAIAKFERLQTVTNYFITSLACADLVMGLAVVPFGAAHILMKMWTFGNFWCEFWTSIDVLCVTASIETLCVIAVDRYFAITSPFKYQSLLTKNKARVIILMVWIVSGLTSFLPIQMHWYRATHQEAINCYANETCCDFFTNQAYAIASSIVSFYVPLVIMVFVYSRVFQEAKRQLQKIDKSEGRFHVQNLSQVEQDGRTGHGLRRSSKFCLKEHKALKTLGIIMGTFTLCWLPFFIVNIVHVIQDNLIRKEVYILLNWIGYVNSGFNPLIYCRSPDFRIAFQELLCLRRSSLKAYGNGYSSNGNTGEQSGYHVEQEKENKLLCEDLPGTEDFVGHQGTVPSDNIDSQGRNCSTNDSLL
# ALR inh – inhibitors of human sulfhydryl oxidase ALR; 290,000 compounds, 3.8% hits; P55789; purified ALR, DTT oxidation, H2O2 HRP-luminol luminescence; inhibition, % (concentration not given with the values);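 active = mean and each replicate at 75% or more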;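 note: stock transfer was 7.5 nL into about 7.5 µL; 0% = neutral wells and 100% = wells with inactivated enzyme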
# Target sequence (P55789 whole entry, looked up): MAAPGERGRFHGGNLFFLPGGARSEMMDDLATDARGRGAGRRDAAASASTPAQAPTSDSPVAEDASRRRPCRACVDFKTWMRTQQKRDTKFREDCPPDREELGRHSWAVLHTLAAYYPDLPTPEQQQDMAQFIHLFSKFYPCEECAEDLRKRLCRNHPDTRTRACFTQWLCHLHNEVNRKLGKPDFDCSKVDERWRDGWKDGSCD
# UCH37 DUB inh – inhibitors of human deubiquitinating enzyme UCH37; Q9Y5K5; purified proteasome/UCH37, Ub-AMC cleavage fluorescence; inhibition, % (concentration not given with the values); 330,000 compounds, 0.33% hits; AID 588478;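 active = mean of two replicates above 20%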;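 note: 0% = compound-free wells with enzyme and 100% = wells lacking proteasome; stock transfer was 100 nL into about 20 µL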
#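 Material: Human UCH37 enzyme supplied as purified proteasome complex | Schedule: 30 min compound-proteasome preincubation then 25 min substrate reaction, room temperature | Detection: AMC fluorescence from Ub-AMC cleavage, excitation 355 nm, emission 460 nm | Benchmarks: Wells without proteasome as full block, compound-free enzyme plus substrate as uninhibited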
# HNF4A DNA FP – change in binding of human HNF4 alpha to DNA | 360,000 compounds, 0.3% hits | P41235 | activity change, % at 10 µM | HNF4a-FITC DNA binding, fluorescence polarization, 1 h; in the data active = activity change above about 30%, passing the limit was not always enough;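 note: controls were the assay level and a saturating level of protein; the project sought stronger binding though the title names inhibitors; some compounds called inactive have numbers as strong as hits; positive values seem to mean higher polarization but the record does not say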
# Target sequence (P41235 whole entry, looked up): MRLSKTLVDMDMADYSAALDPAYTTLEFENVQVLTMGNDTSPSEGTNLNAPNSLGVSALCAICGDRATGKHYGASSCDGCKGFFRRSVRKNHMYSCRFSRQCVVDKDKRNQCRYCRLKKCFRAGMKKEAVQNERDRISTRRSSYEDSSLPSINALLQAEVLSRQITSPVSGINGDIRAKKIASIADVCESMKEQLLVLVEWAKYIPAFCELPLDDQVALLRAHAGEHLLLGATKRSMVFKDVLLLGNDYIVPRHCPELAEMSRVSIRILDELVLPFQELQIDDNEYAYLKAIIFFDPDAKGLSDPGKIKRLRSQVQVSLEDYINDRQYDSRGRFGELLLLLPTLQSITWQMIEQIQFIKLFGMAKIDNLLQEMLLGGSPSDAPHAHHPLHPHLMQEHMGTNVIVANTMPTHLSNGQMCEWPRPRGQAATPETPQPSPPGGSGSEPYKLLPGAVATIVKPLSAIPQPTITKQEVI
# rRNA inh HTS – selective bacterial rRNA inhibition in E. coli; GFP signal change (wild-type ribosome), % (concentration not given with the values); AID 720706; E. coli WT GFP vs humanized-ribosome RFP mutants, fluorescence, 24 h; active compounds read low; DMSO median 0, no signal -100; 350,000 compounds, 1.6% hits;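 active = significant combined selectivity score with lowered wild-type GFP, culture density cut under 30%, mutant RFP and density less affected; inactive = any of these conditions unmet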; note: one replicate is shown; some compounds called inactive have numbers as strong as hits
# rRNA inh HTS OD600 – further read-out of rRNA inh HTS, marked with its call; OD600 change, %; measured here: OD600 growth;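 optical density of the mix in the first replicate; 0 = DMSO median and -100 = no signal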
# rRNA inh HTS RFP – second read-out of rRNA inh HTS, no call of its own (marks repeat the call); RFP signal change, %; measured here: RFP humanized mutant strains;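 first replicate; 0 = DMSO median and -100 = no signal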
# The depositor's hits bear a star; i = inactive; / = no result given; + = active, no number.
# Values in the order: rRNA inh HTS, FGF22 binding, Beta2AR agonist, E coli growth, ALR inh, HNF4A DNA FP, rRNA inh HTS OD600, rRNA inh HTS RFP, UCH37 DUB inh
CC(=O)c1ccc(N2CCN(C(=O)/C=C/c3ccc(S(=O)(=O)N4CCOCC4)cc3)CC2)cc1
  11, i, 14, 0.66, -5, -2.8, 30, 3.9, 5.4
COc1cc(OC)c2c(-c3ccccc3)cc(C3CCCCC3)nc2c1
  2, i, 11, /, /, 3.1, 1, 3.6, /
O=C(Nc1ccc(Cl)cc1[N+](=O)[O-])c1ccc2c(c1)OCCO2
  3, i, 8, 0.71, -14, 7.5, 11, -0.5, 2.1
Nc1nc(CN2CCN(c3ccccn3)CC2)nc(Nc2ccc(F)cc2)n1
  /, /, -14, 0.6, -1, 4.9, /, /, 2.8
O=C(N/C(=C/c1cccc([N+](=O)[O-])c1)C(=O)N1CCCCCC1)c1cccs1
  -2, i, -12, 0.7, 1, 3.3, 1, 0.0, 3.2
O=C(CSc1ccccc1)Nc1cccc(NC(=O)c2ccco2)c1
  -21*, i, -5, 0.63, -8, -2.4, -14*, 1.6*, 1.9
Cc1ccc(CN2C(=O)/C(=C\c3ccc(C(=O)NCc4cccnc4)cc3)Oc3ccccc32)cc1
  7, i, /, 0.66, -25, /, -14, -1.8, i
OCC12COC(c3ccccc3)N1C(c1ccccc1)OC2 (configuration not stated)
  /, /, 6, 0.68, 0, 1.3, /, /, 1.1
Cc1cc(=O)oc2ccc(OC(=O)c3cccc(S(=O)(=O)N4CCOCC4)c3)cc12
  0, /, 11, 0.65, 4, 0.3, 4, 4.5, 1.5
Cc1ccccc1NC(=O)Nc1nc(C2CCC(=O)N2)cs1 (configuration not stated)
  -13, i, /, /, /, -2.9, -14, -0.7, /
Cc1ccccc1CSCC(=O)Nc1ccccc1-c1ccccc1
  -25, i, 2, 0.69, -23, 1.4, -28, -13, 3.9
Cc1nn(C)cc1C(C(=O)NC1CCCCC1)N(C(=O)Cn1nnc2ccccc21)c1ccc(F)cc1 (configuration not stated)
  /, /, 2, 0.67, -6, -0.4, /, /, 2.1
CCCCNC(=O)c1ccc(N2CCOCC2)c(NS(=O)(=O)c2ccc(OC)cc2)c1
  /, /, 1, 0.74, -2, 5.9, /, /, 0.4
CCC(CC)C(=O)N1CCN(c2cccc(C)c2C)CC1
  /, /, 5, 0.72, -6, -0.6, /, /, 5.4
CCCCCC(=O)N1C[C@@H](n2cc(-c3ccc(F)cc3)nn2)[C@H](O)C[C@@H]1c1ccc(OC)cc1
  -16, i, /, /, /, -2.9, -42, 15, /
Cc1ccc(N2CCN(/N=C/c3sccc3C)CC2)cc1
  /, /, 3, /, 2, 0.7, /, /, /
CCC1(c2ccccc2)NC(=O)N(CC(=O)NCc2ccc(C)cc2)C1=O (configuration not stated)
  6, i, 5, 0.7, -9, -2.7, 12, 3.2, 2.1
CCOc1ccc(N2CC(C(=O)NCCCN3CCOCC3)CC2=O)cc1 (configuration not stated)
  /, /, -2, 0.72, 0, 3.1, /, /, -1.3
CC(NCc1ccc(S(N)(=O)=O)cc1)C(=O)N1CCc2ccccc21 (configuration not stated)
  4, i, -4, 0.68, -3, 2.2, 13, -8.9, 0.7
CN1CCN(c2nc(-c3ccccc3)cc(C(F)(F)F)n2)CC1
  /, /, /, 0.67, -1, -3.0, /, /, -16
CCN(CC)C(=O)CSCc1cnn(-c2ccccc2)c1-n1cccc1
  /, /, 10, 0.68, -10, -0.6, /, /, 4.5
Cc1ccc(N2C(=O)NC(NC(=O)C3CC3)(C(F)(F)F)C2=O)cc1 (configuration not stated)
  11, i, 1, 0.7, 0, 1.6, 10, 13, -2.8
COCc1cc(C)nc2sc(C(=O)Nc3ccccc3Br)c(N)c12
  11, i, -12, /, 4, 1.9, 5, -0.1, /
COCCCn1c(=NC(=O)c2ccccc2)c(C#N)cc2c(=O)n3cccc(C)c3nc21
  17, i, 8, 0.66, 3, -4.6, -1, 4.0, i
CCCCNC(=O)C[C@@H]1C[C@@]2(C(=O)OC)CCCCC=C2N(CCC2=CCCCC2)C1=O
  -32, i, /, /, /, -2.0, -45, -3.2, /
CSCCC(NC=O)C(=O)NC(C)C(=O)O (configuration not stated)
  8, i, -4, /, /, -0.4, 15, -2.4, /
COc1cccc(CNc2ccccc2O)c1OCc1ccccc1F
  6, i, -2, 0.69, 34, 2.4, 3, 5.8, -0.2
Cc1nn(CCC(=O)NNC(=S)Nc2ccc(F)cc2)c(C)c1Br
  /, i, 1, 0.68, 16, -0.5, /, /, 4.8
CCn1nnnc1NC(=O)c1cccc(OC)c1
  6, i, -5, 0.7, -20, 6.5, 1, -2.0, 2.1
COc1ccc(/C=C(\C#N)C(=O)Nc2ccc3[nH]c(=O)[nH]c3c2)cc1
  12, i, 3, /, 2, -1.2, 3, 1.5, /
COc1cc(NC(=O)c2cccs2)c(OC)cc1NC(=O)Nc1ccc(F)cc1
  0, +, -6, /, -17, -0.8, 5, 0.5, /
O=C(c1ccc(F)cc1)N1CCN(c2ccc([N+](=O)[O-])cc2-n2cccc2)CC1
  -17, i, -3, 0.69, -10, 1.4, -15, 3.1, 2.2
C[C@H](NC(=O)c1cc2cc(Cl)ccc2n1C)C(=O)N1CCC(C(=O)O)CC1
  -13, i, -13, 0.68, 0, 0.8, -38, -6.6, -1.0
O=C(CCCC(=O)NCCc1ccccc1)NCCc1ccccc1
  /, i, -8, 0.71, -6, 1.3, /, /, 3.5
CCN(CC)CCCNC(=O)c1nn(-c2cccc(OC)c2)c(=O)c2ccccc12
  /, /, 7, 0.79, -26, -1.5, /, /, 2.6
Cc1cc(=O)oc2cc(OC(C)C(=O)NCCCN3CCCC3=O)c(Cl)cc12 (configuration not stated)
  8, i, 1, 0.7, 3, 7.8, 4, 0.4, -6.8
NC(=O)c1snnc1-c1ccccc1
  -1, i, -3, 0.68, -3, 1.2, 6, -4.3, 4.1
Cc1ccc2cc(/C=N/Nc3ccc(C(=O)O)cc3)c(Cl)nc2c1
  8, i, 39, /, /, 0.0, -7, 3.0, /
O=C(Nc1ccnc(-c2cccnc2)n1)c1cccc(Cl)c1Cl
  /, /, -3, 0.65, -18, -0.4, /, /, 1.0
CC(=O)N1CCc2cc(S(=O)(=O)CCC(=O)N3CCN(c4ccccc4F)CC3)ccc21
  -5, i, -10, 0.69, 4, 1.7, -8, -3.2, 3.1
O=C(CSc1n[nH]c(-c2cccs2)n1)NCc1cccs1
  /, /, -1, 0.7, 0, 4.2, /, /, 2.5
COC(C(=O)Nc1ccc(F)cc1)c1ccccc1 (configuration not stated)
  /, /, 7, 0.68, -1, -2.9, /, /, 4.8
Cc1ccc(OC(=O)c2ccccc2C(=O)OCC(F)(F)C(F)F)cc1
  /, /, -1, 0.73, /, -1.3, /, /, 0.7
COc1ccc(C2C3=C(NCCN=C3c3ccccc3)C(=O)N2c2ccccc2)c(OC)c1 (configuration not stated)
  10, i, 2, 0.7, -4, 2.0, 15, 0.3, -0.3
Cc1ccc(S(=O)(=O)N=C2SCCCS2)cc1
  /, /, 4, 0.71, 0, 1.1, /, /, 6.2
O=C1NCCN1Cc1cccc(Cl)c1
  /, /, 0, 0.66, -1, -2.5, /, /, 0.3
CC12CCC(C(=O)NCCCN3CCOCC3)(OC1=O)C2(C)C (configuration not stated)
  /, /, -8, 0.69, -10, -0.2, /, /, 5.8
COC(=O)C1=C(C)NC(=S)N(C(C)=O)C1c1ccc(OC)c(OC)c1 (configuration not stated)
  17, i, 8, 0.7, 7, 1.4, 14, 5.7, 6.4
Cc1sc2ncn3cnnc3c2c1C
  /, /, -5, 0.61, -5, 1.8, /, /, 0.7
COc1cc(C2C(C#N)=C(N)Oc3cc(O)ccc32)cc(OC)c1OC (configuration not stated)
  /, /, 19, 0.68, -4, 1.6, /, /, 3.8
CCOc1ccc(/C=N/NC(=O)C(OC)c2ccccc2)cc1 (configuration not stated)
  27, i, 5, /, -7, -0.6, 18, 2.6, /
Cc1ccccc1OCC(=O)Nc1ccc(S(=O)(=O)N2CCOCC2)cc1
  -10, i, -5, 0.63, /, -0.9, -8, 3.4, -0.3
O=C(NNc1cccc(Cl)n1)Nc1ccc(Cl)cc1
  /, /, -2, 0.75, /, 0.0, /, /, 4.6
Cc1ccc(-n2[nH]c(C)c(C=Nc3ccc(S(=O)(=O)N4CCOCC4)cc3)c2=O)c(C)c1
  3, i, /, 0.7, 0, /, 2, 3.6, 9.6
CCN(CC)S(=O)(=O)c1ccc(NC(=O)C2CC(=O)N(c3ccc4c(c3)OCCO4)C2)cc1 (configuration not stated)
  14, i, 2, 0.64, /, -2.0, 2, -1.0, 3.9
CCCCn1c(=O)n(C)c(=O)c2c(C(F)(F)F)cc(-c3ccncc3)nc21
  /, /, -2, 0.7, -5, -2.2, /, /, -107
O=C(O)c1cccnc1SC1CC(=O)N(CCc2ccccc2)C1=O (configuration not stated)
  13, i, 4, 0.73, -4, -0.5, 7, -4.6, 4.5
CCOC(=O)c1nn(-c2ccccc2)c(=O)cc1OCC(=O)Nc1cc(C)ccc1OC
  3, i, 6, 0.72, /, 1.4, 9, -2.6, -4.1
COCCOc1ccc(C(F)(F)F)cc1NC(=O)COC(=O)c1cc([N+](=O)[O-])ccc1N1CCOCC1
  -3, i, 0, 0.72, -1, 0.4, -7, 6.9, 1.6
COc1cc(OC)cc(C(=O)NCC(=O)OC2CCCCC2=O)c1 (configuration not stated)
  4, i, 5, 0.68, /, -1.3, 11, -1.8, 1.4

# Entries of single compounds as entered above. Order of screens: rRNA inh HTS, FGF22 binding, Beta2AR agonist, E coli growth, ALR inh, HNF4A DNA FP, rRNA inh HTS OD600, rRNA inh HTS RFP, UCH37 DUB inh
# Entry for CC12CCC(C(=O)NCCCN3CCOCC3)(OC1=O)C2(C)C (configuration not stated) = /, /, -8, 0.69, -10, -0.2, /, /, 5.8
# Entry for O=C(O)c1cccnc1SC1CC(=O)N(CCc2ccccc2)C1=O (configuration not stated) = 13, i, 4, 0.73, -4, -0.5, 7, -4.6, 4.5

# Next section
# Values in the order: rRNA inh HTS, FGF22 binding, Beta2AR agonist, E coli growth, ALR inh, HNF4A DNA FP, rRNA inh HTS OD600, rRNA inh HTS RFP, UCH37 DUB inh
Cc1cccc(NC(=O)CN2CCN(C(=O)c3oc4c(Cl)cccc4c3C)CC2)c1C
  2, i, -16, 0.7, 2, 0.9, 7, 4.0, 4.3
CC(=O)NCCc1nc2ccccc2n1CCOc1ccccc1C
  -19, i, -16, 0.71, -3, -0.1, -11, -0.8, 3.3
CCCC(=O)N1CCC1(C)C(=O)Nc1ccc2c(c1)CCN2C(C)=O (configuration not stated)
  11, i, /, /, /, 1.9, 13, 3.0, /
CCOC(=O)NCc1ccc(S(=O)(=O)Nc2ccccc2C)cc1
  /, /, -2, 0.72, -17, 5.6, /, /, 4.0
Cc1cc(C)n2nc(SCC(=O)c3cc(C)n(CC4CCCO4)c3C)nc2n1 (configuration not stated)
  -6, i, -1, 0.68, 1, -1.9, -13, 3.3, 3.5
O=C(NCCO)c1cccc(-c2cnc3c(Nc4cccc(OC(F)(F)C(F)F)c4)nccn23)c1
  -5, i, /, /, /, 6.2, -9, 1.8, /
CCCCOCCCN1CC(=O)N2C(C)c3[nH]c4ccccc4c3C[C@H]2C1=O (some centres not stated)
  -3, i, -9, 0.68, /, 2.2, -1, -2.2, 1.4
Cc1ccc(/C=c2\sc3nc(-c4cccs4)nn3c2=O)o1
  /, /, 5, /, 99*, 0.5, /, /, /
C/C(=N\NC(=S)NC1CCCCC1)c1ccc(O)cc1
  -31, i, 1, /, 36, -0.6, -41, -3.6, /
COc1cccc(CNC(=O)CNS(=O)(=O)c2ccc(Br)s2)c1
  -1, i, 10, 0.61, 1, 0.3, 5, 3.4, 2.0
Nc1nnc(SCc2coc(-c3ccc(Cl)cc3)n2)s1
  /, /, 0, 0.76, 1, -4.6, /, /, 4.6

# An excerpt. The share of hits here may be higher or lower than overall.
